# VDR inhibitor = inhibitors of human vitamin D receptor; P11473; VDR-SRC2-3 peptide fluorescence polarization, 2 h; Potency, µM, for the others: max response, negative = inhibition, usual class: inhibitors; actives 0.93% (n = 400,000); AID 504847; active = well fitted inhibition curve with a large enough effect; inconclusive = small, poorly fitted or top-dose-only effect, or another doubt; inactive = no such curve, though single readings can be large or run the other way; also: series mostly up to about 120 µM
# Target sequence (P11473 whole entry, looked up): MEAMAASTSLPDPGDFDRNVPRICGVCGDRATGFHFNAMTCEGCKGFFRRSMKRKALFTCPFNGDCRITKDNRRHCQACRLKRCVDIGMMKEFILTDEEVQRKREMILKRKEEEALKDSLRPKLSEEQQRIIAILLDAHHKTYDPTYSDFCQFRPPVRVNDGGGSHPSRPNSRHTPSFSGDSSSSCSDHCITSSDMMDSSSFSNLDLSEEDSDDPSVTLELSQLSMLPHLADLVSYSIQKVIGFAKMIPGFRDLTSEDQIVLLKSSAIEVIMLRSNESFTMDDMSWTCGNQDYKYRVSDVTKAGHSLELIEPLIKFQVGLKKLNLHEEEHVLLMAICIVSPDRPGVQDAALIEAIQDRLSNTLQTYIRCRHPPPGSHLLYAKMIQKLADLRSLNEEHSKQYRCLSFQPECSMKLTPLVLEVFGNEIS
#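 Inhibition of the VDR/SRC2-3 peptide interaction is quantified by fluorescence polarization. Compounds (23 nl, pintool) incubate with the reagents for 2 hours at ambient room temperature.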
# Numbers without * were called inactive; u = inconclusive; & = joins results of further samples. % is scaled to controls: 0 for no effect and ±100 for the full control effect; potency is read from the fitted curve at half-maximal effect.
SMILES,VDR inhibitor
O=C(c1ccc2c(c1)N(Cc1ccc(F)cc1)C(=O)c1ccccc1S2(=O)=O)N1CCCCCC1,-16%
Cc1ccc(NC(=O)NC2(C(=O)NCc3ccco3)CCCCC2)cc1,-4%
Cc1cccc2cc(C#N)c(SCC(=O)NCc3cccs3)nc12,3%
NCCc1c(C(=O)O)[nH]c2ccc([N+](=O)[O-])cc12,u
C=CCSc1n[nH]c(-c2ccc(OCCCC)cc2)n1,-7%
O=C(Cn1cc([N+](=O)[O-])ccc1=O)NCC(=O)Nc1ccc(F)c(F)c1F,-11%
CCOC(=O)C1CCN(C(=O)c2cccnc2Oc2ccccc2)CC1,-3%
CCCCCOCC(O)CCC(=O)NN (stereo unspecified),-2%
Cc1csc(NC(=S)NC(=O)c2ccccc2)n1,9%
COc1cccc(CNC(=O)C2=Cc3cccc(OC)c3OC2)c1,7%
Cc1cc(C)cc(-n2ncc3c2CCCC3NC(=O)CN2CCCC2=O)c1 (stereo unspecified),u
C[C@@H]1CN(C(=O)c2nc3ccc(Cl)cn3c2CNCC[C@@H]2C[C@@H]3C=C[C@H]2C3)C[C@H](C)O1,0%
Brc1ccccc1/C=N/Nc1nc2ccccc2o1,16%
Cc1cc(C)cc(N2C(=O)C=CC2=O)c1,40µM*
CCOC(=O)c1cc(-c2ccccc2)n[nH]1,8%
Cc1nc(NC(=O)/C=C/c2ccco2)sc1C,0%
CCc1nnc(NC(=O)CSc2nnc(-c3cc4ccccc4cc3O)n2CC)s1,3%
CC(C)CN(CCNC(=O)c1cc(-c2cccs2)nc2ccccc12)CC(C)C,4%
Cc1ccc(OCc2nnc(SCc3cc(=O)[nH]c4ccccc34)o2)cc1,-4%
Cc1ccc(/C=N/N(C)S(=O)(=O)c2ccc(C)cc2)cc1,-2%
C/C=C(/C)C(=O)O[C@@H]1c2c(ccc3ccc(=O)oc23)O[C@@H]1C(C)(C)OC(=O)/C(C)=C\C,1%
CCOC(=O)c1ccc2c(c1)N(CC(=O)Nc1cc(F)ccc1F)C(=O)c1ccccc1S2,4%
O=S(=O)(c1ccc(-c2nnc(SCc3ccccc3)o2)cc1)N1CCCC1,26%
Cc1ccc(C)c(CNS(=O)(=O)c2c(C)[nH]c(C)c2C(=O)N2CCCCC2)c1,6%
CCOC(=O)c1cc2c(s1)-c1ccccc1CC2,4%
COCCN(Cc1cc2ccccc2[nH]c1=O)C(=O)c1ccccc1OC,-9%
O=C(CCc1c[nH]c2ccccc12)NC1CC1,1%
COc1ccc(C(=O)NNC(=O)C(Cc2ccc(O)cc2)NC(=O)c2ccccc2NC(=O)c2ccc(OC)cc2)cc1 (stereo unspecified),-6%
CCOC(=O)C1CCN(C(=O)C2(NC(=O)NC3CCCCC3)CCCCC2)CC1,24%
Cc1ccc(C)c(NC(=O)CSc2nnc(CNC(=O)c3cccs3)o2)c1,-15%

# By substructure, the compounds so far containing an aryl thioether with sulfur outside any ring (six)
SMILES,VDR inhibitor
Cc1cccc2cc(C#N)c(SCC(=O)NCc3cccs3)nc12,3%
C=CCSc1n[nH]c(-c2ccc(OCCCC)cc2)n1,-7%
CCc1nnc(NC(=O)CSc2nnc(-c3cc4ccccc4cc3O)n2CC)s1,3%
Cc1ccc(OCc2nnc(SCc3cc(=O)[nH]c4ccccc34)o2)cc1,-4%
O=S(=O)(c1ccc(-c2nnc(SCc3ccccc3)o2)cc1)N1CCCC1,26%
Cc1ccc(C)c(NC(=O)CSc2nnc(CNC(=O)c3cccs3)o2)c1,-15%

# Following part.
SMILES,VDR inhibitor
CCOC(=O)Cn1nc(/C=C/c2ccc(OC)cc2)ccc1=O,6%
O=C(c1ccc([N+](=O)[O-])cc1)N1CCC(n2nnc3cc(F)ccc32)CC1,9%
O=C(CN1C(=O)NC2(CCCCCC2)C1=O)NCc1cccs1,15%
Cc1ccc(OCc2nnc(SCC(=O)c3ccccc3)n2-c2ccccc2)cc1,-4%
CCOC(=O)c1c(C)oc2nc(C)nc(NCCCN3CCN(c4ccc(F)cc4)CC3)c12,12%
Cc1cc(C)c(C(N)=O)c(Nc2ccc3c(c2)OCCO3)n1,6%
CC(C)=CCC/C(C)=C/C(N)=O,10%
COc1ccc(OC)c(C(C)NC(=O)Nc2ccccc2)c1 (stereo unspecified),-6%
CCN1C[C@@H]2[C@@H]3C(=O)N(C)C(=O)[C@@H]3[C@](Cc3ccccc3)(C1=O)N2C(=O)c1ccc(F)cc1,-3%
COc1cc(OC)cc(C(=O)NCCc2csc(-c3cccc(C)c3)n2)c1,4%
COc1cccc(NC(=O)CN2CCN(C(=O)c3ccco3)CC2)c1,4%
CCc1c(C)sc2c1CCN(Cc1cccc(OC)c1)C2c1ccccc1 (stereo unspecified),17%
CCn1c(CNC(=O)COC)nc2ccccc21,-19%
CC(C)OCCCNC(=O)c1cc(S(=O)(=O)N2CCCCC2)c[nH]1,-16%
CCOc1ccccc1NC(=O)/C(C#N)=C/c1cccnc1,0%
CNC(=O)COC(=O)c1ccc(NC(=O)CC#N)cc1,0%
CC1(C)CC(=O)C2=C(C1)N(Cc1ccco1)C(=O)C2(NC(=O)c1cccnc1)C(F)(F)F (stereo unspecified),3%
C=CCOC(=O)C1=C(C)NC(=O)NC1c1cc2c(cc1Br)OCO2 (stereo unspecified),14%
Cc1ccc(N2C(=O)CC(Sc3ncccc3C(=O)O)C2=O)cc1 (stereo unspecified),-13%
CC(C)C(=O)Nc1nnc(SCc2cccc(F)c2)s1,-12%
COCC(C)n1c(C)cc(C(=O)COc2ccc(N(C)S(=O)(=O)c3ccc(NC(C)=O)cc3)cc2)c1C (stereo unspecified),6%
CN(Cc1ccon1)Cc1cn(C)nc1-c1ccc2c(c1)OCCO2,3%
CCOC(=O)C1=C(COC(=O)COc2ccccc2C(C)C)NC(=O)NC1C (stereo unspecified),2%
Cc1ccnc(N2CCCC(C(=O)Nc3cccc(C)c3C)C2)n1 (stereo unspecified),2%
COc1cc(C(=O)OCc2ccc(C)cc2)cc(NC(=O)c2cccs2)c1OC,8%
O=C(CSCc1cccc(Cl)c1)N/N=C/c1ccc(OCC(=O)N2CCCCC2)cc1,-1%
Cc1ccc(-n2c(C)nnc2SCC(=O)N2CCOCC2)cc1,7%
CN(C)S(=O)(=O)c1ccc(NC=O)cc1,12%
Cc1ccc(C)c(N2CCN(C(=O)C3CCCN(Cc4nc(-c5cccc(Cl)c5)oc4C)C3)CC2)c1 (stereo unspecified),-10%
Cc1cc(C)n(CCNC(=O)CC2C(=O)NCCN2Cc2ccccc2C(F)(F)F)n1 (stereo unspecified),-10%
CC(=O)Nc1nc(C)c(Oc2ccc(Cl)cc2Cl)c(=O)[nH]1,-8%
COc1ccc2c(c1)C(c1ccc(C)o1)=NNC(c1cccnc1)=N2,-9%
COc1ccc(NC(=O)CCc2nc(-c3ccc(C)cc3)no2)cc1Cl,2%
Cc1ccc2[nH]c(-c3ccccc3)c(CN3CCOCC3)c(=O)c2c1,3%
COC(=O)c1c(C)nsc1NC(=O)Oc1ccccc1,1%
CCNC(=S)N(CCc1c(C)[nH]c2ccc(C)cc12)Cc1cccnc1,-6%
O=C(O)c1nn(CC(=O)N2CCN(c3ncc(C(F)(F)F)cc3Cl)CC2)c(=O)c2ccccc12,1%
CC(=O)c1ccc(S(=O)(=O)NC2CC(=O)N(c3ccc(Cl)cc3)C2)cc1 (stereo unspecified),-3%
CC(Sc1nncn1C)C(=O)NCCC1=CCCCC1 (stereo unspecified),-4%
FC(F)(F)c1cccc(Cc2noc(CN3CCCCC3c3ccccn3)n2)c1 (stereo unspecified),10%

# Entries listed so far printed as active in VDR inhibitor.
SMILES,VDR inhibitor
Cc1cc(C)cc(N2C(=O)C=CC2=O)c1,40µM*

# (further entries)
SMILES,VDR inhibitor
COc1ccc(NC(=O)C23CC4CC(C2)CC(c2ccc(C)cc2)(C4)C3)cc1,10%
Cc1cc(C)cc(N/C(N)=N/c2nc(C)cc(C)n2)c1,3%
CCOC(=O)C1C(=O)OC2(CCCC2)C1C(=O)OCC (stereo unspecified),13%
CCCCn1c(N)c(-c2nc3ccccc3s2)c2c([N+](=O)[O-])nn(CC)c(=O)c21,-9%
CC(/C=C/c1ccco1)=N\NC(=O)c1cc(C)[nH]n1,-30%
Cc1ccc(-c2noc(CSc3nnc(-c4cccs4)n3C)n2)cc1,-5%
Cc1nn(-c2ccc(F)cc2)c(Cl)c1/C=C/C(=O)N1CCNC(=O)C1,2%
O=C(COc1ccc2ccc(=O)oc2c1)OCc1ccccc1,-9%
COc1ccc2[nH]c3nc(SCc4nnc(-c5ccc(C)cc5)o4)nnc3c2c1,11%
COc1cccc(C(=O)N(C)CC(=O)Nc2ccc(F)c(F)c2F)c1,20%

# 5 consecutive entries already listed:
SMILES,VDR inhibitor
COc1ccc(NC(=O)C23CC4CC(C2)CC(c2ccc(C)cc2)(C4)C3)cc1,10%
Cc1cc(C)cc(N/C(N)=N/c2nc(C)cc(C)n2)c1,3%
CCOC(=O)C1C(=O)OC2(CCCC2)C1C(=O)OCC (stereo unspecified),13%
CCCCn1c(N)c(-c2nc3ccccc3s2)c2c([N+](=O)[O-])nn(CC)c(=O)c21,-9%
CC(/C=C/c1ccco1)=N\NC(=O)c1cc(C)[nH]n1,-30%

# Further compounds follow:
SMILES,VDR inhibitor
CCCCn1c(SCC(=O)NC2CC2)nc2ccccc2c1=O,10%
Cc1ccc2nc(SCc3nc4ccccc4c(=O)[nH]3)[nH]c2c1,u
CCOC(=O)/C(C#N)=C1/C=CN(C)C(C)=N1,10%
Cc1ccc(NCc2nnc3n2CCCCC3)c(C)c1,11%
CC1=CC(C)C2(CO)COC(c3ccccc3O)C1C2C (stereo unspecified),13%
COc1ccc(NC(=O)c2ccc(COCC(F)(F)F)cc2)cc1OC,3%
COc1cc(OC)c2c(-c3cccc(-c4ccc(CO)cc4)c3)cc(=O)oc2c1,-23%&2%
COCCOC(=O)C1=C(C)NC2=C(C(=O)CC(C)(C)C2)C1c1cccnc1 (stereo unspecified),-12%
CC(C)N1CCSC1=S,-7%
COc1ccccc1Oc1ccc2c(c1)C(=O)N(c1ccccc1)C2=O,11%
Cc1ccc(CNC(=O)c2ccc(CS(=O)(=O)c3ccccc3C)o2)cc1,-2%&-2%
Cc1nn(C)c(Cl)c1CN1CCN(CCC(C)C)C(CCO)C1 (stereo unspecified),-2%
Cc1ccc(CN2C(=O)N/C(=C/c3ccc(-c4ccc(C(=O)O)cc4)o3)C2=O)cc1,-2%
CC(C)Oc1ccc(CN=C(N)N=C(N)N)cc1Cl,10%
Cc1noc(C)c1C(=O)OCC(=O)c1ccc[nH]1,21%
CCN1CCN(CC(=O)Nc2cc(C)c(C)cc2[N+](=O)[O-])CC1,-5%
Cc1cc(NC(=O)Cc2ccccc2)cc(-c2nc3ccccc3o2)c1O,5%
N#C/C(C(N)=O)=C1/CCCN1Cc1ccccc1,-6%
Cc1cccc(C(=O)OCC(=O)c2ccc3c(c2)NC(=O)CO3)c1,-17%
Cc1cc(=O)[nH]c2cc(O)ccc12,3%
OCCCNC(=S)NC1CCCC1,3%
COc1ccc(N2CCN(C(=O)CSc3nnc(-c4cc5ccccc5cc4O)n3C)CC2)cc1,-1%
CN1C(=O)c2ccccc2N(C)C1c1cccc(O)c1 (stereo unspecified),19%
CCCOc1c(Br)cc(/C=N/O)cc1OC,1%
O=C(CSc1ccc(Br)cc1)Nc1ccc(N2CCOCC2)cc1,8%
CCOc1ccccc1OCC(=O)OCC(=O)c1c(C)[nH]c2ccccc12,1%
CCCC(=O)NNC(=O)CCC(=O)Nc1ccccc1Cl,-8%
Cc1ccc(C(=O)N(C)CC(=O)Nc2ccc(N3CCOCC3)cc2)s1,-8%
O=C(Nc1cccc(Cl)c1N1CCCCC1)c1ccc2c(c1)OCCO2,-9%
COc1cc(/C=C/C(=O)OCC(=O)N(CC(C)C)c2c(N)n(Cc3ccccc3)c(=O)[nH]c2=O)ccc1O,-6%
Cc1cc(C)cc(NC(=O)c2ccc(CNc3c(N4CCCC4)c(=O)c3=O)cc2)c1,-6%
O=S(=O)(c1ccc(Oc2ccc(Br)cc2F)nc1)N1CCCCC1,7%
CCN(CC)S(=O)(=O)c1ccc2c(c1)N(CC(=O)NCc1ccccn1)C(=O)CO2,-10%
CC(=O)NCCCC(=O)NN1C(=S)N(Cc2ccccc2)C(=O)C1CC(=O)Nc1cccc(C)c1 (stereo unspecified),7%
O=C(/C=C/c1ccc2c(c1)OCO2)c1ccccc1,u
Cc1c(Cl)cccc1-n1ccnc1SCC(=O)O,-3%
Cc1ccc(-c2nnc(N3CCN(C(=O)c4ccco4)CC3)c3ccccc23)cc1,-5%
O=c1c2ccccc2nc(CSc2nnnn2-c2ccccc2)n1-c1ccccc1Cl,-11%
Cc1cccc(-n2c(-c3csc(C)c3C)n[nH]c2=S)c1,-24%
O=[N+]([O-])c1ccc(O)c(CN2CCCCCC2)c1,-21%
CCOc1ccc(CCNC(=O)c2ccc(OCc3c(C)noc3C)cc2)cc1OCC,6%
O=C(O)c1ccc(NC(=O)c2ccccc2NC(=O)c2cccc(F)c2)cc1,-2%
COc1cccc(CNC(=O)CCC(=O)N2CC(C)Oc3ccccc32)c1OC (stereo unspecified),-11%
CN(C(=O)CSc1nc2ccc(NC(=O)CCc3ccccc3)cc2s1)c1ccccc1,1%
Cc1ccc(C)c(NC(=S)NC(NC(=O)Cc2ccccc2)C(Cl)(Cl)Cl)c1 (stereo unspecified),-22%
CCc1ccc(-c2nc(NC(=S)NC(=O)c3cccs3)sc2C)cc1,27%
CCN(CC)S(=O)(=O)c1nnc(NC(=O)COc2ccccc2Cl)s1,-4%
Cc1cc(C(=O)Cn2nc(C(=O)O)c3ccccc3c2=O)c(C)n1-c1ccccc1,-5%
Cc1ccc(C(=O)NNC(=O)C(C)Oc2ccccc2F)cc1S(=O)(=O)N1CCOCC1 (stereo unspecified),-10%

# A portion of the library. The share of hits here may be higher or lower than overall.
